GIV-Gai inh – GIV-Galpha-i interaction inhibition. percent of control (FP), % (concentration not given with the values). hit rate 0.42% among 210,000. Galpha-i3/FITC-GIV peptide fluorescence polarization, 90 min; active compounds read low; scaled: aluminum fluoride 0%, vehicle 100%. AID 1224905. P08753;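 active means replicate mean at 85% of control or lower, very high polarization wells dropped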;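 further: wells of about 15 µL received 100 nL stock; the first replicate is given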
Target sequence (P08753 whole entry, looked up): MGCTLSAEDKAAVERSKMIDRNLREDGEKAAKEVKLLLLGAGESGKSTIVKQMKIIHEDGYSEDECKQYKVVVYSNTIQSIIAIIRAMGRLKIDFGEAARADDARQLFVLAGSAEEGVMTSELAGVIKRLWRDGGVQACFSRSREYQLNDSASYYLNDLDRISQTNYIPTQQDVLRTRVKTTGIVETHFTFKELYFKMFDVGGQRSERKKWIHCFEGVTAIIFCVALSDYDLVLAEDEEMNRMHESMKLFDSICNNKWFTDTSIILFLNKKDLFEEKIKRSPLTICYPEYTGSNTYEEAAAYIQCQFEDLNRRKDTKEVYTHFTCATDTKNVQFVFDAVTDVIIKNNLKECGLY
Numbers without * were called inactive. Some of the compounds tested; count on the stated rates, not on these rows.

SMILES	GIV-Gai inh
CCCc1nn2c(=O)cc(CN(CCC)Cc3ccc(C(C)C)cc3)nc2s1	104
Cc1ccccc1NC(=O)c1ccccn1	105
CC(C)NC(=O)CCn1c(=O)c2ccccc2n2c(=O)n(CC(N)=O)nc12	96
Fc1ccc(-c2nc(Cn3ccnc3)no2)cc1	101
O=C1N/C(=C/c2ccc(-c3ccc([N+](=O)[O-])cc3Br)o2)C(=O)N1Cc1ccc(Cl)cc1	146
CCCCN(CCCC)S(=O)(=O)c1ccc2c(c1)C(=O)c1cc(S(=O)(=O)N(CCCC)CCCC)ccc1-2	98
Cc1ccc(C)c(CSc2nc3cc(C(=O)NCC(C)C)ccc3c(=O)n2CC2CCCO2)c1 (configuration not stated)	108
Cc1ccc(N(C)S(=O)(=O)c2ccccc2-c2nc(-c3ccccc3)no2)cc1	97
O=C(NC1CCCCC1)c1ccc2ccnc(N3CCN(c4ccc(Cl)cc4)CC3)c2c1	106
C=CCn1c(=O)c(=O)n(CCC(=O)NCCc2c[nH]c3ccccc23)c2ccccc21	106
C=CC(=O)N1c2cc(C)ccc2-c2c(ssc2=S)C1(C)C	124
Cc1ccc(NC(=O)C2CCCN2C(=O)Oc2ccccc2)cc1C (configuration not stated)	107
CCN(CC)C(=O)/C(=C/c1cccc([N+](=O)[O-])c1)NC(=O)c1ccco1	109
O=S(=O)(c1cn(Cc2noc(-c3ccc(Br)cc3)n2)cn1)N1CCCCC1	103
O=C(NCCSCc1ccccc1)c1ccc(N2CC3CC(C2)c2cccc(=O)n2C3)c(NC(=O)c2ccncc2)c1 (configuration not stated)	101
CCOC(=O)N1CCC(NC(=O)c2cc3n(n2)C(C(F)(F)F)CC(c2ccc4c(c2)OCO4)N3)CC1 (configuration not stated)	104
CCc1c(C)c(C#N)c2nc3ccccc3n2c1Nc1ccc(N(CC)CC)cc1	116
CCN(CC)S(=O)(=O)c1ccc2c(c1)cc(C(=O)N1CCN(c3ccc(F)cc3)CC1)n2C	106
CNC(=O)CSc1nc2c(cnn2-c2ccc(Cl)cc2)c(=O)[nH]1	97
Cc1ccc(Cc2c(C)nc3c(C(=O)NCCCN4CCOCC4)cnn3c2C)cc1	105
Cc1cccc(C2CC(=O)Nc3c2ccc2ccccc32)c1 (configuration not stated)	104
Cc1cc2c(cc1C(=O)NCCc1c[nH]c3ccccc13)OCCCO2	103
CCN1CCN(S(=O)(=O)c2cc(-c3nc(C(C)C)cs3)sc2C)CC1	98
CC(=O)Nc1cccc(NC(=O)c2ccc(=O)n(Cc3ccccc3F)c2)c1	107
Cc1ccc2c(nc3s/c(=C\c4cc(C(C)(C)C)c(O)c(C(C)(C)C)c4)c(=O)n32)c1C	114
SMILES	GIV-Gai inh
Clc1ccc(-c2csc(-c3cc4cc(Br)ccc4oc3=Nc3ccccc3)n2)cc1	117
COCCOC(=O)c1c(C)oc2ccc(NS(=O)(=O)c3cc(Cl)ccc3Cl)cc12	101
O=C(NCCCN1CCCCCC1)c1ccc(Cn2c(=S)[nH]c3ccc(Br)cc3c2=O)cc1	118
Cc1ccsc1/C=c1\sc2nc(-c3ccccc3)c(-c3ccccc3)n2c1=O	112
CCC(=O)Nc1ccc(N(C)CC2COCCO2)c(C(=O)O)c1 (configuration not stated)	104
Cc1ccc(S(=O)(=O)Nn2c(SCC(=O)c3ccc(F)cc3)nc3ccccc3c2=O)cc1	111
CC(C)(C)c1ccc(C(=O)N/C(=C\c2ccc([N+](=O)[O-])cc2)C(=O)Nc2ccc(Cl)c([N+](=O)[O-])c2)cc1	127
CCOC(=O)c1[nH]c(C)c(CN(CC2CCCO2)C(=O)C2CCCCC2)c1C (configuration not stated)	106
CCNC(=O)N1CCC2(C1)C(=O)N(C)c1ccccc12 (configuration not stated)	104
Cc1ccc(C)c(Cn2nc3c(S(=O)(=O)N4CCCCCC4)cccn3c2=O)c1	108
O=C(Nc1ncnc2oc(-c3ccccc3)c(-c3ccccc3)c12)c1ccc(F)cc1	117
O=C(COc1ccccc1)Nc1ccc(S(=O)(=O)N2CCCCC2c2cccnc2)cc1 (configuration not stated)	113
Cc1cccc(C)c1NC(=O)C1(NC(=O)c2ccccc2)CCC(C(C)(C)C)CC1 (configuration not stated)	106
O=C(CSc1nc2ccccc2nc1Cc1ccc(F)cc1)NC1CCCCC1	109
Cc1cc(-c2csc(S(=O)(=O)N(Cc3cccs3)C3CCCC3)c2)on1	100
NS(=O)(=O)c1ccc(CCNc2ncnc3c2c(-c2ccccc2)cn3-c2ccc(F)cc2)cc1	115
CCOC(=O)c1sc2[nH]c(=S)n(Cc3cccc(Br)c3)c(=O)c2c1C	105
O=c1c2cc(-c3ccc(Br)cc3)nn2cnn1Cc1nc(-c2ccc3c(c2)OCO3)no1	112
Cc1ccc(-c2csc(Cc3nc(-c4cccc(F)c4)no3)n2)cc1C	105
O=C(NCc1ccco1)/C(=C\c1ccccc1)NC(=O)c1ccc(Cl)cc1Cl	106
CCOC(=O)C1=C(CSc2nc(C)c(C)c(C)c2C#N)OC(N)=C(C#N)C1c1ccc(OC)cc1 (configuration not stated)	114
O=C(CSc1nc2[nH]ncc2c(=O)n1-c1ccc(Cl)cc1)Nc1ccc(Br)cc1	106
COc1ccc(C(=O)N/C(=C/c2cccs2)C(=O)NCCN2CCOCC2)cc1	110
COCC(=O)N1CCc2c(c(C(=O)N3CCCC(C(=O)Nc4ccccc4)C3)nn2C)C1 (configuration not stated)	107
CCCn1cnc2cc(-c3noc(CNC(=O)Cc4ccc(Cl)cc4)n3)ccc21	98

Four compounds already listed, sorted by heavy-atom count, highest first:
SMILES	GIV-Gai inh
CCc1c(C)c(C#N)c2nc3ccccc3n2c1Nc1ccc(N(CC)CC)cc1	116
CC(=O)Nc1cccc(NC(=O)c2ccc(=O)n(Cc3ccccc3F)c2)c1	107
CCOC(=O)c1sc2[nH]c(=S)n(Cc3cccc(Br)c3)c(=O)c2c1C	105
CNC(=O)CSc1nc2c(cnn2-c2ccc(Cl)cc2)c(=O)[nH]1	97

Other compounds
SMILES	GIV-Gai inh
Cc1nc(C)c(-c2nc(Cn3cnc(S(=O)(=O)N4CCCCC4)c3)no2)s1	108
COc1ccc(Oc2coc3cc(OC(=O)c4ccc(OC)c(OC)c4)ccc3c2=O)cc1	101
COc1ccc(N2C(=O)/C(=C/c3ccc(Oc4ccc([N+](=O)[O-])cn4)cc3)C(=O)NC2=S)cc1	105
Clc1ccc(-c2nnc(-c3nc(NCc4cccnc4)c4ccccc4n3)o2)cc1	99
COc1ccccc1N1CCN(C(=O)Cn2c(=O)n3nc(C)nc3c3ccccc32)CC1	96
CCOC(=O)c1cc2c(c(CSc3nc4cc(C(=O)OC)ccc4c(=O)n3CCN3CCOCC3)c1)OCOC2	114
CCOC(=O)c1c(NC(=O)C(C)Sc2nnc(CNC(=O)c3cccs3)n2-c2cccc(Cl)c2)sc2c1CCC2 (configuration not stated)	101
NS(=O)(=O)c1ccc(CCNC(=O)CSc2nc3ccccc3c(=O)n2CCC(=O)N2CCCCC2)cc1	103
CC(=O)Nc1nnc(Sc2c(C)nn(-c3ccc4nncn4n3)c2C)s1	101
COCC(=O)Nc1nnc2n1CCCS2	99
O=C1c2cc(S(=O)(=O)N3CCOCC3)ccc2-c2ccc(S(=O)(=O)N3CCOCC3)cc21	110
O=C(Nc1ccc2c(c1)OCCO2)NC1CCN(c2ccc(F)cc2)C1=O (configuration not stated)	99
CCN(CC)CCNC(=O)CCc1c(C)n(C)c2cc(-c3ccccc3C)nn2c1=O	103
COc1cccc(C(=O)N(Cc2cccnc2)c2nc3ccc(Cl)cc3s2)c1OC	106
COc1ccc(C2=N/C(=C/c3c(OC)ccc4ccccc34)C(=O)O2)cc1Br	111
O=C1c2ccccc2Sc2cc(-c3noc(-c4cnccn4)n3)ccc2N1C1CC1	98
CCOC(=O)c1ccc(-n2c(=S)sc3c(=O)n(-c4ccccc4)c(=S)[nH]c32)cc1	112
COc1ccc(OC)c(-n2c(=S)[nH]c3c(sc(=S)n3-c3ccccc3C)c2=O)c1	100
Cc1ccc(NS(=O)(=O)c2cc(-c3nc(C)c(C)s3)sc2C)cc1F	102
COc1ccc(NC(=O)Cn2cc(-c3nc(-c4ccc(C)cc4)no3)ccc2=O)c(OC)c1	100
COc1cccc(CNC(=O)c2ccc(Oc3nccnc3Sc3ccc(Cl)cc3)cc2)c1	98
O=C(Nc1ccc2ccccc2c1)/C(=C/c1cccc([N+](=O)[O-])c1)NC(=O)c1ccccc1Br	104
CC(C)c1cc(C2CCCN2Cc2ccc(F)cc2F)on1 (configuration not stated)	105
CSCON1C(=O)CN(C(=O)c2ccccc2)C1c1cccc([N+](=O)[O-])c1 (configuration not stated)	102
C=CCNC(=O)C1CCN(Cc2cn(C)c3ccc(OC)cc23)CC1	105
SMILES	GIV-Gai inh
COc1cc(NS(=O)(=O)c2cc(-c3cc(C)no3)cs2)cc(OC)c1	106
O=C(c1ccc(F)cc1)N1CCc2cc(CNS(=O)(=O)c3ccc(Cl)cc3)ccc21	105
COc1ccc(N2C(=O)C(N3C(=O)c4ccc([N+](=O)[O-])cc4C3=O)C2c2cc(Br)ccc2OC)cc1Cl (configuration not stated)	103
CC1CCC2(CC1)NCCN=C2NCc1ccccc1Cl (configuration not stated)	103
Cc1nc(-c2cnccn2)nc2c1CC(=O)N2CC1CCCO1 (configuration not stated)	141
O=C(CC1CCN(C(=O)c2cn(-c3ccccc3)nc2-c2ccccc2)CC1)Nc1ccccc1F	106
CCCS(=O)(=O)N1CCCC(C(=O)NCCN2CCC(Cc3ccccc3)CC2)C1 (configuration not stated)	117
c1ccc2c(c1)CC1(CCCCC1)N=C2Nn1cnnc1	108
O=C(Nc1ccc(O)cc1)/C(=C/c1cccc([N+](=O)[O-])c1)NC(=O)c1ccccc1Br	107
CC1CCN(c2ccc(-c3c(C#N)c(N)n4c(nc5ccccc54)c3C#N)cc2[N+](=O)[O-])CC1	116
Cn1nccc1-c1nc(-c2ccc(-c3csc(C4CC4)n3)cc2)no1	100
OC(CN1CCN(Cc2ccc(Cl)cc2)CC1)Cn1c2ccccc2c2ccccc21 (configuration not stated)	113
O=c1c2sc(-c3ccc([N+](=O)[O-])cc3)cc2nc2n1CCC2	116
O=C1N=C(N2CCN(C3=NC(=O)/C(=C/c4ccc(O)cc4)S3)CC2)S/C1=C\c1ccc(O)cc1	125
COc1ccc(OC)c(CNS(=O)(=O)c2cc(-c3cnn4c(C)cc(C)nc34)ccc2OC)c1	96
CC1CC=C2C(C#N)=C(N)C(C#N)(C#N)C(c3cccc(Cl)c3)C2C1 (configuration not stated)	112
Cc1cc(NS(=O)(=O)c2cc(-c3nc(C)c(C(=O)N4CCOCC4)s3)n(C)c2C)no1	99
Cc1ccc(NC(=O)C2CC2(c2ccccc2C)c2ccccc2C)cc1 (configuration not stated)	111
COc1ccc(-c2ccc(Nc3ccc(S(N)(=O)=O)cc3)nn2)cc1S(=O)(=O)N1CCCC1	100
CCSCCOC(=O)C1=C(C)NC2=C(C(=O)CC(C)(C)C2)C1c1ccc(OC)c(Br)c1 (configuration not stated)	101
Cc1ccccc1N/C(SCc1cccc(Br)c1)=C(/C#N)C(N)=O	108
Cc1nc2nc(-c3ccccc3)nn2c(Sc2ccccc2N)c1C	99
Cc1cc(C2CCCN2C(=O)NC2CCCCC2)no1 (configuration not stated)	109
O=C(NC1CCN(C(=O)C2CC2)C1)C1CCC1 (configuration not stated)	102
Cn1c(N2CCN(C(=O)c3[nH]nc4c3CCc3ccccc3-4)CC2)cc(=O)n(C)c1=O	108

3 entries from above, with values ahead of the structure:
GIV-Gai inh | canonical_smiles
103 | O=S(=O)(c1cn(Cc2noc(-c3ccc(Br)cc3)n2)cn1)N1CCCCC1
101 | O=C(NCCSCc1ccccc1)c1ccc(N2CC3CC(C2)c2cccc(=O)n2C3)c(NC(=O)c2ccncc2)c1 (configuration not stated)
104 | CCOC(=O)N1CCC(NC(=O)c2cc3n(n2)C(C(F)(F)F)CC(c2ccc4c(c2)OCO4)N3)CC1 (configuration not stated)

The listing picks up with the three entries that preceded the break.
SMILES	GIV-Gai inh
Cc1cc(C2CCCN2C(=O)NC2CCCCC2)no1 (configuration not stated)	109
O=C(NC1CCN(C(=O)C2CC2)C1)C1CCC1 (configuration not stated)	102
Cn1c(N2CCN(C(=O)c3[nH]nc4c3CCc3ccccc3-4)CC2)cc(=O)n(C)c1=O	108
COc1ccccc1-n1c(=S)[nH]c2c(sc(=S)n2-c2ccc(Cl)c(C)c2)c1=O	111
O=c1[nH]c(=O)c2nc3ccc(Cl)cc3nc2[nH]1	103
COc1ccc(-c2csc(Nc3ccc(C)cn3)n2)cc1	97
Cc1nn(-c2ccc3nncn3n2)c(C)c1CCC(=O)Nc1cccnc1	105
COc1cccc(C2N(c3ccc(C)cc3)CCN2c2ccc(C)cc2)c1OC	108
O=S(=O)(c1cn(Cc2noc(/C=C/c3ccccc3Cl)n2)cn1)N1CCCCC1	114
OCCN1CCN(c2nc(NCc3ccco3)c3ccccc3n2)CC1	103
COc1ccc(C2(O)CN(c3cccc(C)c3)C3=[N+]2CCCS3)c(F)c1 (configuration not stated)	104
Cc1ccc(-c2n[nH]c(CCNC(=O)NC(C)(C)C)n2)cc1	109
O=CN1CCN(S(=O)(=O)c2ccc3c(c2)Cc2cc(S(=O)(=O)N4CCN(C=O)CC4)ccc2-3)CC1	102
COc1ccc(C2C(C#N)=C(N)N(c3ccc(C)cc3)C3=C2C(=O)CC(C)(C)C3)cc1OC (configuration not stated)	102
O=C(CCc1nc(N2CCCCC2)c2c(-c3ccc(F)cc3)noc2n1)NCc1ccccc1Cl	99
CC(=O)Nc1nc(-c2ccc(Cl)cc2Cl)nc2c1c(=O)oc1ccccc12	102
CCC(C)(C)c1ccc(OCCCCNC(=O)c2ccc3ccccc3c2O)c(C(C)(C)CC)c1	100
CCOC(=O)CC(=O)CSc1nc2c(c(-c3cccs3)c1C#N)CCC2	96
